MLL AF4-AF9 inh – inhibitors of human MLL-AF4/AF9 interaction; P42568; AlphaScreen, biotin-AF4 peptide binding to FLAG-AF9; inhibition, % at 10 µM; 350,000 tested, 0.47% active; AID 651704;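 active means every replicate reaching a set inhibition limit, whatever the replicate mean, cut at about 25% in these data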;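 further: 0% = plate neutral control median and 100% = total signal loss; the record names both 10 and 1 µM as test concentration; the first replicate is given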
Target sequence (P42568 whole entry, looked up): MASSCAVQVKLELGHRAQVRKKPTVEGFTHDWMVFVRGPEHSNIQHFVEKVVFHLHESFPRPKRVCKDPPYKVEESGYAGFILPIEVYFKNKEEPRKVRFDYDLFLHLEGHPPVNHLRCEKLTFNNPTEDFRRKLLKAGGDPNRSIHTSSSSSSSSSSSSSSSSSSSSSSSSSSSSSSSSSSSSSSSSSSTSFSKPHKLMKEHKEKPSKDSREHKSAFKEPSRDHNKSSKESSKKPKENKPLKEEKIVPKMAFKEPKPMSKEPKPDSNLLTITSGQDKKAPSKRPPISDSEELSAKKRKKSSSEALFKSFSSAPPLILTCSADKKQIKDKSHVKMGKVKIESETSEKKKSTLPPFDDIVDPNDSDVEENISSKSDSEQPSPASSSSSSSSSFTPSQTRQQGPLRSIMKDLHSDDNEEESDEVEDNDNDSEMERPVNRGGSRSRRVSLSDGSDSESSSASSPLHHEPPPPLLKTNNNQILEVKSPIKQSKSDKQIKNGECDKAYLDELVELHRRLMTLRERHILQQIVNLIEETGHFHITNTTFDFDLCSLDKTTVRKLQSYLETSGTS
FGF22 binding – shifts melting point of recombinant human FGF22. Q9HCT0. 340,000 tested, 1.5% active. AID 651658. calls only at 9.99 µM. recombinant FGF22 thermal shift, SYPRO orange fluorescence; percent of sucrose octasulfate shift, DMSO zero;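 active means melting point raised past a set limit in the mean and every replicate; three in four hits are not shown here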
Target sequence (Q9HCT0 whole entry, looked up): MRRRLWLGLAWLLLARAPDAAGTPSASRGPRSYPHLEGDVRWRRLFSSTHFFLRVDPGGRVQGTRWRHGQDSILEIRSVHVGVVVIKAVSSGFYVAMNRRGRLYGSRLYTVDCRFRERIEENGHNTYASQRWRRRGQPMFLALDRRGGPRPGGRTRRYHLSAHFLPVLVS
Numbers without * were called inactive; i = inactive; . = no result given; + = active, no number. Some of the compounds tested, so the mix of outcomes need not match the whole.

MLL AF4-AF9 inh | FGF22 binding | structure
-3.5 | i | CN1CCN(C(=O)C[C@H]2C[C@H]3c4cc(NC(=O)C5CCC5)ccc4O[C@H]3[C@H](CO)O2)CC1
-1.4 | i | C[C@@H]1CCCCO[C@@H](CN(C)C)[C@H](C)CN([C@@H](C)CO)C(=O)c2cc(NC(=O)Nc3ccccc3)ccc2O1
-18 | i | O=C(C[C@@H]1C[C@H]2c3cc(NC(=O)NC4CCCCC4)ccc3O[C@H]2[C@H](CO)O1)NCc1ccncc1
-0.5 | i | COc1ccc(NC(=O)Nc2ccc3c(c2)C(=O)N([C@H](C)CO)C[C@H](C)[C@H](CN(C)S(=O)(=O)c2cccs2)O3)cc1
-1.4 | i | CC(C)NC(=O)N(C)C[C@H]1OCCCC[C@H](C)Oc2ccc(NS(=O)(=O)c3ccc(F)cc3)cc2C(=O)N([C@H](C)CO)C[C@H]1C
4.0 | . | COC(=O)[C@]1(CC(C)C)NC=C(C(=O)c2ccccc2)[C@@H]1c1cccs1
2.9 | i | COc1ccc(-c2ccc([C@@H]3[C@@H](CO)N4C(=O)CN(Cc5ccccc5)C[C@@H]34)cc2)cc1
-1.5 | i | C[C@H](CO)N1C[C@H](C)[C@@H](CN(C)CC2CCCCC2)Oc2c(NC(=O)C3CCOCC3)cccc2C1=O
4.6 | i | C[C@H](CO)N1C[C@H](C)[C@H](CN(C)CC2CCCCC2)Oc2ccc(NC(=O)Nc3ccccc3)cc2C1=O
-1.8 | i | CCNC(=O)Nc1ccc2c(c1)C(=O)N(C)[C@H]1CC[C@H](CC(=O)NCCOC)O[C@H]1CO2
-2.0 | i | CC(C)NC(=O)N(C)C[C@H]1Oc2ccc(NC(=O)C3CCCCC3)cc2CC(=O)N([C@H](C)CO)C[C@@H]1C
2.1 | i | COCC#Cc1ccc2c(c1)O[C@@H](CN(C)C(=O)Nc1ccc(OC)cc1)[C@@H](C)CN([C@@H](C)CO)S2(=O)=O
-3.3 | i | C[C@H](CO)N1C[C@H](C)[C@H](CN(C)C(=O)Oc2ccccc2)OCc2ccccc2-c2ccccc2C1=O
-0.2 | i | COc1ccc(C[C@H]2CCn3cc(nn3)COC[C@H](C(C)C)NC2=O)cc1
-0.7 | i | COC(=O)[C@@H]1[C@@H](CO)[C@@H]2Cn3c(ccc(C4=CCCC4)c3=O)[C@@H]2N1Cc1ccccn1
1.3 | i | Cc1ccc2nc(-c3ccc(F)cc3)c(Cc3ccsc3)n2c1
-1.3 | i | O=C(C[C@@H]1C=C[C@@H](NC(=O)c2cccc(F)c2)[C@H](CO)O1)NCCN1CCCC1
2.9 | i | Cc1ccc(S(=O)(=O)N(C)C[C@@H]2OCCCC[C@H](C)Oc3ccc(N(C)C)cc3C(=O)N([C@H](C)CO)C[C@H]2C)cc1
-2.9 | i | C[C@@H]1CN([C@@H](C)CO)C(=O)c2cc(NS(=O)(=O)c3cccs3)ccc2O[C@H]1CN(C)S(=O)(=O)c1ccccc1
-3.7 | i | CN1CCN(C(=O)c2cc3c(c(-c4cccc(-c5ccc(C#N)cc5)c4)n2)[C@H](CCO)N([S@@](=O)C(C)(C)C)C3)CC1
-3.9 | i | C/C=C/c1cnc2c(c1)C(=O)N([C@H](C)CO)C[C@@H](C)[C@H](CN(C)Cc1cccc(C(=O)O)c1)O2
-2.4 | i | C[C@H]1CN([C@@H](C)CO)C(=O)Cc2cc(NS(=O)(=O)c3cn(C)cn3)ccc2O[C@H]1CN(C)C(=O)Nc1ccc(F)cc1
0.3 | i | C[C@H](CO)N1C[C@H](C)[C@@H](CN(C)C(=O)Nc2ccccc2)Oc2ccc(NS(=O)(=O)c3cccs3)cc2C1=O
5.0 | i | C[C@@H]1CN([C@H](C)CO)S(=O)(=O)c2ccc(-c3ccccc3)cc2O[C@@H]1CN(C)C(=O)CN(C)C
-9.1 | i | COc1ccc(CNC(=O)C[C@H]2C=C[C@@H](NS(=O)(=O)c3cccc(OC)c3)[C@@H](CO)O2)cc1
-0.9 | i | COc1cccc(S(=O)(=O)Nc2ccc3c(c2)C(=O)N(C)[C@H]2CC[C@H](CC(=O)NCC4CCCCC4)O[C@H]2CO3)c1
-1.3 | i | C[C@H](CO)N1C[C@H](C)[C@H](CN(C)C(=O)NC2CCCCC2)Oc2ncc(-c3cccc(F)c3)cc2C1=O
3.1 | i | Cc1noc(C)c1NC(=O)N(C)C[C@H]1OCCCC[C@H](C)Oc2ccc(NC(=O)Nc3ccc4c(c3)OCO4)cc2C(=O)N([C@H](C)CO)C[C@@H]1C
-1.2 | i | CC(C)NC(=O)N(C)C[C@H]1OCCCC[C@@H](C)Oc2ccc(NC(=O)C3CCCCC3)cc2C(=O)N([C@H](C)CO)C[C@H]1C
2.0 | i | COc1ccc(-c2ccc3c(n2)CCCN3S(=O)(=O)c2ccccc2C)cc1

Entries of single compounds, looked up by structure. Order of screens: MLL AF4-AF9 inh, FGF22 binding
COC(=O)[C@@H]1[C@@H](CO)[C@@H]2Cn3c(ccc(C4=CCCC4)c3=O)[C@@H]2N1Cc1ccccn1 reads -0.7, i
C[C@H](CO)N1C[C@H](C)[C@H](CN(C)C(=O)NC2CCCCC2)Oc2ncc(-c3cccc(F)c3)cc2C1=O reads -1.3, i

Carrying on:
MLL AF4-AF9 inh | FGF22 binding | structure
-1.2 | i | COc1ccc(CN(C)C[C@@H]2Oc3c(NC(=O)Nc4ccccc4)cccc3C(=O)N([C@H](C)CO)C[C@H]2C)cc1
-1.8 | i | C[C@H]1CN([C@@H](C)CO)C(=O)c2cccc(NC(=O)Nc3ccc(C(F)(F)F)cc3)c2O[C@@H]1CN(C)S(C)(=O)=O
-3.6 | i | CO[C@@H]1CN(C)C(=O)c2ccc(NC(=O)c3ccccc3)cc2OC[C@@H](C)N(C(=O)CN(C)C)C[C@H]1C
-0.6 | i | O=C(C[C@@H]1C[C@@H]2c3cc(NC(=O)Cc4ccncc4)ccc3O[C@@H]2[C@H](CO)O1)NCc1cccnc1
9.9 | i | CNC[C@H]1Oc2cc(C#Cc3cccc(OC)c3)ccc2S(=O)(=O)N([C@H](C)CO)C[C@@H]1C
1.6 | i | O=C(CN1CCOCC1)N1CC(=O)N2[C@H](C1)[C@H](c1ccc(/C=C/c3ccccc3)cc1)[C@@H]2CO
-3.2 | i | C[C@H]1CN([C@@H](C)CO)C(=O)c2cccc(NC(=O)c3cnccn3)c2O[C@@H]1CN(C)S(=O)(=O)c1cn(C)cn1
-0.6 | i | C[C@@H]1CN([C@H](C)CO)C(=O)Cc2cc(NS(=O)(=O)c3ccc(F)cc3)ccc2O[C@@H]1CN(C)Cc1ccc(Oc2ccccc2)cc1
0.5 | i | C[C@@H]1CCCCO[C@@H](CN(C)C(=O)Cc2ccccc2)[C@@H](C)CN([C@H](C)CO)C(=O)c2cc(NS(=O)(=O)c3cn(C)cn3)ccc2O1
-2.6 | i | O=C(c1ccccc1)N1C[C@@H]2[C@H](c3ccccc31)[C@H](CO)N2S(=O)(=O)c1ccccc1
-3.5 | i | C[C@@H]1CCCCO[C@@H](CN(C)Cc2ccncc2)[C@H](C)CN([C@@H](C)CO)C(=O)c2cc(NS(=O)(=O)c3ccc(Cl)cc3)ccc2O1
3.7 | i | C[C@H]1CN([C@@H](C)CO)S(=O)(=O)c2ccc(C#CCN(C)C)cc2O[C@@H]1CN(C)C(=O)CN(C)C
0.4 | i | C[C@@H]1CN([C@@H](C)CO)S(=O)(=O)c2ccc(C3=CCCCC3)cc2O[C@@H]1CN(C)C(=O)c1ccncc1
-1.7 | i | C[C@@H]1CN([C@H](C)CO)C(=O)Cc2cc(NS(=O)(=O)c3cccs3)ccc2O[C@H]1CN(C)CC1CC1
-4.5 | i | O=C(CCN1CCCCC1)NCC[C@H]1CC[C@H](NC(=O)C2CC2)[C@H](CO)O1
0.1 | i | COc1cccc(S(=O)(=O)N[C@H]2C=C[C@@H](CC(=O)NCc3ccc(Cl)cc3)O[C@H]2CO)c1
-1.7 | i | CC(C)NC(=O)N[C@H]1CC[C@H](CCNC(=O)C2CCOCC2)O[C@H]1CO
-0.9 | i | COc1ccccc1CN1[C@H](CO)[C@@H](c2ccccc2)C12CN(C(=O)c1ccccn1)C2
2.8 | i | C[C@@H]1CN([C@@H](C)CO)S(=O)(=O)c2ccc(/C=C/c3ccccc3)cc2O[C@H]1CN(C)C(=O)c1ccc2c(c1)OCO2
0.2 | i | CN1C(=O)c2cc(NC(=O)c3cscn3)ccc2OC[C@H]2O[C@H](CC(=O)NCc3ccc(Cl)c(Cl)c3)CC[C@@H]21
-0.3 | i | CC(C)NC(=O)N(C)C[C@@H]1Oc2ncc(C#Cc3ccc(F)cc3)cc2C(=O)N([C@H](C)CO)C[C@H]1C
4.5 | i | COc1ccccc1-c1cnc2c(c1)C(=O)N([C@@H](C)CO)C[C@H](C)[C@@H](CN(C)C(=O)c1cccnc1)O2
3.5 | i | Cc1ccc2c(c1)-n1c(nc3ccc(C)cc3c1=O)C(Cc1ccc(O)cc1)NC2=O (configuration not stated)
4.0 | i | OC1(C#Cc2c(-c3ccsc3)sc3ccccc23)CCCCC1
-1.0 | i | C[C@H]1CN([C@@H](C)CO)C(=O)c2cc(NC(=O)CCC(F)(F)F)ccc2O[C@H]1CN(C)S(=O)(=O)c1ccccc1
-19 | i | O=C(Cc1ccccc1)N[C@H]1C=C[C@H](CC(=O)N2CCCCC2)O[C@@H]1CO
0.4 | i | COc1ccccc1NC(=O)N[C@@H]1C=C[C@H](CC(=O)N[C@H](C)c2ccccc2)O[C@H]1CO
-1.3 | i | C[C@@H]1CN([C@@H](C)CO)C(=O)Cc2cc(NC(=O)C3CC3)ccc2O[C@@H]1CN(C)C(=O)NC1CCCCC1
-3.9 | i | C[C@@H]1CN([C@H](C)CO)C(=O)c2c(c3ccccc3n2C)-c2ccccc2CO[C@H]1CN(C)S(C)(=O)=O
-0.3 | i | CCNC(=O)C[C@@H]1CC[C@@H]2[C@@H](COc3ccc(NC(=O)c4cccc(OC)c4)cc3C(=O)N2C)O1

Fetched by compound from above:
MLL AF4-AF9 inh | FGF22 binding | structure
-4.5 | i | O=C(CCN1CCCCC1)NCC[C@H]1CC[C@H](NC(=O)C2CC2)[C@H](CO)O1
-3.2 | i | C[C@H]1CN([C@@H](C)CO)C(=O)c2cccc(NC(=O)c3cnccn3)c2O[C@@H]1CN(C)S(=O)(=O)c1cn(C)cn1
-0.6 | i | O=C(C[C@@H]1C[C@@H]2c3cc(NC(=O)Cc4ccncc4)ccc3O[C@@H]2[C@H](CO)O1)NCc1cccnc1

Remaining list, next part:
MLL AF4-AF9 inh | FGF22 binding | structure
5.0 | i | O=C(C[C@H]1C[C@@H]2c3cc(NC(=O)Cc4ccncc4)ccc3O[C@@H]2[C@H](CO)O1)NCCN1CCCCC1
-2.9 | i | Cc1noc(C)c1S(=O)(=O)Nc1ccc2c(c1)C(=O)N([C@H](C)CO)C[C@H](C)[C@H](CN(C)C(=O)Nc1cccc3ccccc13)O2
1.4 | i | C[C@@H]1CN([C@H](C)CO)C(=O)c2c(c3ccccc3n2C)-c2ccccc2CO[C@H]1CN(C)S(=O)(=O)c1cccs1
4.4 | i | COc1ccc(NC(=O)N2CCCCN3[C@H](CO)[C@H](c4ccc(C5=CCCCC5)cc4)[C@@H]3C2)cc1
-1.3 | i | C[C@@H]1CN([C@H](C)CO)C(=O)Cc2cc(NC(=O)c3ccncc3)ccc2O[C@@H]1CN(C)S(=O)(=O)c1cccs1
2.6 | i | O=C(C[C@H]1CC[C@@H](NC(=O)NC2CCCC2)[C@H](CO)O1)NCc1ccc(F)cc1
-1.4 | i | COc1ccc(NC(=O)Nc2cccc3c2O[C@@H](CN(C)Cc2ccccc2)[C@@H](C)CN([C@@H](C)CO)C3=O)cc1
-5.0 | i | CO[C@H]1CN(C)C(=O)c2cc(NS(C)(=O)=O)ccc2OC[C@@H](C)N(C(=O)C2CCC2)C[C@@H]1C
-0.7 | i | C[C@H]1CCCCO[C@@H](CN(C)C(=O)Cc2ccccc2)[C@@H](C)CN([C@@H](C)CO)C(=O)c2cc(NS(C)(=O)=O)ccc2O1
2.7 | i | C[C@@H]1CN([C@H](C)CO)C(=O)Cc2cc(NS(=O)(=O)c3ccc(Cl)cc3)ccc2O[C@@H]1CN(C)Cc1ccc(C(=O)Nc2ccccc2N)cc1
-0.7 | i | C[C@@H]1CCCCO[C@@H](CN(C)C(=O)Nc2ccccc2)[C@H](C)CN([C@H](C)CO)C(=O)c2cc(NS(C)(=O)=O)ccc2O1
-0.6 | i | C[C@@H]1CN([C@H](C)CO)C(=O)c2cc(NS(=O)(=O)c3cn(C)cn3)ccc2O[C@@H](C)CCCCO[C@H]1CN(C)C(=O)Nc1ccccc1
0.2 | + | C[C@@H]1CN([C@@H](C)CO)C(=O)c2cc(NC(=O)Nc3ccc(C(F)(F)F)cc3)ccc2O[C@@H]1CN(C)Cc1ccc(C(=O)O)cc1
-0.2 | i | Cc1noc(C)c1NC(=O)Nc1ccc2c(c1)C(=O)N([C@H](C)CO)C[C@@H](C)[C@@H](CN(C)Cc1ccc(C(F)(F)F)cc1)O2
-3.1 | i | Cc1noc(C)c1S(=O)(=O)N(C)C[C@@H]1OCCCC[C@H](C)Oc2ccc(NS(=O)(=O)c3ccccc3)cc2C(=O)N([C@H](C)CO)C[C@@H]1C
0.9 | i | CCCc1nc2c3ccccc3ccn2c1Cc1ccccc1OC
0.0 | i | CC(C)CC1NC(=O)c2ccc(Cl)cc2-n2c1nc1ccc(F)cc1c2=O (configuration not stated)

Some of these compounds in order of the MLL AF4-AF9 inh value, lowest first.
MLL AF4-AF9 inh | FGF22 binding | structure
-3.2 | i | C[C@H]1CN([C@@H](C)CO)C(=O)c2cccc(NC(=O)c3cnccn3)c2O[C@@H]1CN(C)S(=O)(=O)c1cn(C)cn1
-2.4 | i | C[C@H]1CN([C@@H](C)CO)C(=O)Cc2cc(NS(=O)(=O)c3cn(C)cn3)ccc2O[C@H]1CN(C)C(=O)Nc1ccc(F)cc1
0.4 | i | COc1ccccc1NC(=O)N[C@@H]1C=C[C@H](CC(=O)N[C@H](C)c2ccccc2)O[C@H]1CO
